# NOMO-1 viab: NOMO-1 AML cell viability reduction, primary screen, STK33 inhibitor project, CellTiter-Glo luminescence; AID 2330, 2010; NOMO-1 AML viability, 72 h; inhibition, % (test concentration not listed); 37,000 compounds, 7.5% hits;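 active means most replicates above 80%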;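 further: wells of about 30 µL received 25 nL stock; 0% = median of vehicle wells and 100% = reference inhibitor level; the first replicate is given; inactives centre near 10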
# * = called active by the depositor. The list is partial; the hit share may differ from the screen's.
no.	structure	NOMO-1 viab
1	COc1ccccc1NC(=O)c1ccccc1S(=O)(=O)c1ccccc1[N+](=O)[O-]	20
2	C[C@H](CO)N1C[C@H](C)[C@H](CN(C)C(=O)Nc2ccc(C(F)(F)F)cc2)Oc2ccc(NC(=O)Cc3ccccc3)cc2C1=O	5
3	COc1ccc(NC(=O)Nc2cccc3c2O[C@@H](CN(C)C(=O)Nc2ccc(F)cc2)[C@H](C)CN([C@@H](C)CO)C3=O)cc1	5
4	COC(=O)c1ccc(NC(=O)CSc2nnnn2C2CC3CCC2C3)cc1 (stereo unspecified)	19
5	C[C@H]1CN([C@@H](C)CO)C(=O)c2cccc(NS(=O)(=O)c3ccc(Cl)cc3)c2O[C@@H]1CN(C)C(=O)Nc1ccc2c(c1)OCO2	24
6	C[C@H]1CN([C@@H](C)CO)C(=O)Cc2cc(NC(=O)Cc3cn(C)c4ccccc34)ccc2O[C@H]1CN(C)C(=O)NC1CCCCC1	8
7	Cc1ccc(S(=O)(=O)Nc2ccc3c(c2)CC(=O)N([C@@H](C)CO)C[C@H](C)[C@H](CN(C)S(=O)(=O)c2ccc(F)cc2)O3)cc1	6
8	Cc1ccc(S(=O)(=O)N(C)C[C@@H]2Oc3ccc(NC(=O)Cn4cnnn4)cc3C(=O)N([C@@H](C)CO)C[C@H]2C)cc1	-7
9	O=C(O)c1cccc(CSc2n[nH]c(-c3ccc(Cl)cc3)n2)c1	-8
10	COc1c2ccoc2nc2c(OC)c(OCC(O)C(C)(C)O)ccc12 (stereo unspecified)	7
11	Clc1ccc(-c2nnc(SCC3CC3)o2)cc1	15
12	C[C@@H]1CCCCO[C@H](CN(C)Cc2ccc(C(=O)O)cc2)[C@@H](C)CN([C@H](C)CO)C(=O)c2cc(NS(=O)(=O)c3ccccc3)ccc2O1	-8
13	Cc1ccc(S(=O)(=O)N(C)C[C@@H]2Oc3c(NC(=O)C4CCCCC4)cccc3C(=O)N([C@H](C)CO)C[C@H]2C)cc1	16
14	CC(=O)NC(c1cccc([N+](=O)[O-])c1)c1c(O)ccc2ccccc12 (stereo unspecified)	-18
15	COc1ccc2nc(Nc3nc(C)c(CCC(C)C)c(=O)[nH]3)nc(C)c2c1	66
16	O=S1(=O)N=C(N(Cc2ccccc2O)c2ccc(Cl)cc2)c2ccccc21	7
17	C[C@H](CO)N1C[C@H](C)[C@H](CN(C)Cc2ccc(Cl)c(Cl)c2)Oc2ccc(NC(=O)Nc3ccccc3)cc2C1=O	113*
18	COC(=O)[C@H](Cc1ccc(O)cc1)NC(=O)c1cccc(Cl)c1	110*
19	C[C@@H]1CN([C@H](C)CO)C(=O)Cc2cc(NC(=O)Cc3cn(C)c4ccccc34)ccc2O[C@H]1CN(C)Cc1ccncc1	15
20	CC(C)COc1ccc2c3c(c(=O)oc2c1)CCCC3	48
21	CC(=O)OCC1=C[C@H](O)[C@@H]2C(C(=O)O)=CO[C@@H](O[C@@H]3O[C@H](CO)[C@@H](O)[C@H](O)[C@H]3O)[C@H]12	8
22	Cc1ccc2c(CC(=O)Nc3cccc([N+](=O)[O-])c3)coc2c1C	17
23	Cc1ccc(NC(=O)CNS(=O)(=O)c2ccccc2)c(C)c1	-8
24	O=C(CN1C(=O)COc2ccc(Cl)cc21)Nc1ccc([N+](=O)[O-])cc1	59
25	Cc1cccc(NC(=O)CNS(=O)(=O)c2ccc(Br)cc2)c1	-8
26	Cc1ccc(S(=O)(=O)Nc2cccc3c2O[C@@H](CN(C)Cc2ccc(Oc4ccccc4)cc2)[C@H](C)CN([C@H](C)CO)C3=O)cc1	30
27	O=C(OCC1=C[C@@H](O)[C@@H]2C=CO[C@@H](O[C@@H]3O[C@H](CO)[C@@H](O)[C@H](O)[C@H]3O)[C@H]12)c1ccc(O)cc1	-10
28	C[C@@H]1CN([C@H](C)CO)C(=O)c2cccc(NC(=O)c3ccncc3)c2O[C@H]1CN(C)CC1CCCCC1	44
29	C[C@H](CO)N1C[C@H](C)[C@H](CN(C)Cc2ccc3c(c2)OCO3)Oc2ccc(NC(=O)Nc3cccc4ccccc34)cc2C1=O	98*
30	C[C@@H]1CN([C@H](C)CO)C(=O)c2cc(NC(=O)CCN3CCOCC3)ccc2O[C@H]1CN(C)Cc1ccc(-c2ccccc2)cc1	5
31	C/C=C1/[C@H](O[C@@H]2O[C@H](CO)[C@@H](O)[C@H](O)[C@H]2O)OC=C(C(=O)OC)[C@H]1CC(=O)OCCc1ccc(O)cc1	24
32	Cc1noc(C)c1NC(=O)Nc1ccc2c(c1)C(=O)N([C@H](C)CO)C[C@@H](C)[C@H](CN(C)C(=O)Nc1ccccc1)O2	7
33	C[C@H](CO)N1C[C@H](C)[C@H](CN(C)C(=O)Nc2cccc3ccccc23)Oc2ccc(NS(=O)(=O)c3ccccc3)cc2CC1=O	26
34	O=C(CSc1nc2ccccc2c(=O)[nH]1)Nc1ccc(Br)cc1	19
35	C[C@@H]1CN([C@@H](C)CO)C(=O)c2cccc(NS(=O)(=O)c3ccc(F)cc3)c2O[C@@H]1CN(C)CC1CC1	-6
36	Cc1ccc(C)c(OCC(=O)Nc2cc(C(=O)O)cc(C(=O)O)c2)c1	-4
37	COc1ccc(NC(=O)N(C)C[C@@H]2Oc3ccc(N(C)C)cc3C(=O)N([C@@H](C)CO)C[C@H]2C)cc1	-1
38	CC(C)NC(=O)Nc1ccc2c(c1)C(=O)N([C@H](C)CO)C[C@H](C)[C@@H](CN(C)S(=O)(=O)c1cn(C)cn1)O2	-6
39	O=C(COc1ccc(C2CCCCC2)cc1)Nc1cccc(-c2nc3ncccc3o2)c1	23
40	COC(=O)CCCC(=O)Nc1ccc([N+](=O)[O-])cc1	-6
41	Cc1noc(C)c1NC(=O)N(C)C[C@@H]1OCCCC[C@@H](C)Oc2ccc(NS(=O)(=O)c3ccc(Cl)cc3)cc2C(=O)N([C@H](C)CO)C[C@@H]1C	7
42	Cc1ccc([N+](=O)[O-])cc1N(CC(=O)Nc1ccc(I)cc1)S(C)(=O)=O	121*
43	Cc1ccc(S(=O)(=O)Nc2ccc3c(c2)C(=O)N([C@H](C)CO)C[C@H](C)[C@@H](CN(C)S(=O)(=O)c2ccc(C)cc2)O3)cc1	11
44	c1ccc(-c2cc3ccsc3o2)cc1	36
45	COc1ccc(NC(=O)CCn2cnc3ccccc3c2=O)cc1OC	-8
46	Cc1ccc(S(=O)(=O)Nc2cccc3c2O[C@H](CN(C)Cc2ccc(Cl)c(Cl)c2)[C@H](C)CN([C@H](C)CO)C3=O)cc1	41
47	O=C(O)CCN1C(=O)c2ccc(NC(=O)c3ccco3)cc2C1=O	-12
48	COc1ccc(CN(C)C[C@@H]2Oc3c(NC(=O)Nc4ccc(F)cc4)cccc3C(=O)N([C@@H](C)CO)C[C@H]2C)cc1	110*
49	COc1ccc(NC(=O)Nc2ccc3c(c2)C(=O)N([C@H](C)CO)C[C@H](C)[C@@H](CN(C)Cc2ccc(Cl)c(Cl)c2)O3)cc1	28
50	COC(=O)/C=C1/C(=O)N/C(=N\c2nc(C)cc(C)n2)N1c1cccc(C)c1	41
51	Cc1cc(C)c(OCC(O)Cn2cnc3ccccc32)c(C)c1 (stereo unspecified)	49
52	COc1ccc(OCC(=O)Nc2ccc(NC(=O)c3ccco3)c(OC)c2)cc1	-1
53	CCc1cccc(CC)c1NC(=O)COc1ccccc1C(=O)N1CCOCC1	23
54	C[C@H](CO)N1C[C@H](C)[C@@H](CN(C)Cc2ccc(-c3ccccc3)cc2)Oc2ccc(NC(=O)NC3CCCCC3)cc2C1=O	14
55	C[C@@H]1CN([C@H](C)CO)C(=O)c2cc(NC(=O)Nc3cccc4ccccc34)ccc2O[C@@H]1CN(C)Cc1ccccc1	57
56	C[C@@H]1CN([C@@H](C)CO)C(=O)c2cccc(NC(=O)c3ccc(-c4nccs4)cc3)c2O[C@H]1CN(C)Cc1ccc2c(c1)OCO2	103*
57	Cc1noc(C)c1NC(=O)N(C)C[C@H]1Oc2c(NC(=O)Nc3ccccc3)cccc2C(=O)N([C@H](C)CO)C[C@H]1C	-5
58	COc1ccc(CN(C)C[C@H]2Oc3ccc(NC(=O)Nc4c(C)noc4C)cc3C(=O)N([C@@H](C)CO)C[C@H]2C)cc1	21
59	C[C@H](CO)N1C[C@H](C)[C@H](CN(C)Cc2ccc(C(F)(F)F)cc2)Oc2c(NC(=O)c3nc4ccccc4s3)cccc2C1=O	96*
60	C[C@@H]1CCCCO[C@@H](CN(C)Cc2ccc(C(F)(F)F)cc2)[C@@H](C)CN([C@H](C)CO)C(=O)c2cc(NC(=O)Nc3ccc(F)cc3)ccc2O1	42

# Three successive records from above:
no.	structure	NOMO-1 viab
58	COc1ccc(CN(C)C[C@H]2Oc3ccc(NC(=O)Nc4c(C)noc4C)cc3C(=O)N([C@@H](C)CO)C[C@H]2C)cc1	21
59	C[C@H](CO)N1C[C@H](C)[C@H](CN(C)Cc2ccc(C(F)(F)F)cc2)Oc2c(NC(=O)c3nc4ccccc4s3)cccc2C1=O	96*
60	C[C@@H]1CCCCO[C@@H](CN(C)Cc2ccc(C(F)(F)F)cc2)[C@@H](C)CN([C@H](C)CO)C(=O)c2cc(NC(=O)Nc3ccc(F)cc3)ccc2O1	42

# Shown field by field: 4 of the compounds above
57: Cc1noc(C)c1NC(=O)N(C)C[C@H]1Oc2c(NC(=O)Nc3ccccc3)cccc2C(=O)N([C@H](C)CO)C[C@H]1C
  NOMO-1 viab: -5

58: COc1ccc(CN(C)C[C@H]2Oc3ccc(NC(=O)Nc4c(C)noc4C)cc3C(=O)N([C@@H](C)CO)C[C@H]2C)cc1
  NOMO-1 viab: 21

59: C[C@H](CO)N1C[C@H](C)[C@H](CN(C)Cc2ccc(C(F)(F)F)cc2)Oc2c(NC(=O)c3nc4ccccc4s3)cccc2C1=O
  NOMO-1 viab: 96*

60: C[C@@H]1CCCCO[C@@H](CN(C)Cc2ccc(C(F)(F)F)cc2)[C@@H](C)CN([C@H](C)CO)C(=O)c2cc(NC(=O)Nc3ccc(F)cc3)ccc2O1
  NOMO-1 viab: 42

# Additional entries follow.
no.	structure	NOMO-1 viab
61	C[C@@H]1CN([C@@H](C)CO)C(=O)Cc2cc(N(C)C)ccc2O[C@@H]1CN(C)C(=O)Nc1ccc(F)cc1	17
62	C[C@@H]1CN([C@H](C)CO)C(=O)Cc2cc(NC(=O)Nc3ccc(F)cc3)ccc2O[C@H]1CN(C)Cc1ccc(-c2ccccc2)cc1	127*
63	C[C@@H]1CN([C@@H](C)CO)C(=O)Cc2cc(NS(=O)(=O)c3ccc(Cl)cc3)ccc2O[C@@H]1CN(C)C(=O)Nc1ccc2c(c1)OCO2	-2
64	C[C@@H]1CN([C@H](C)CO)C(=O)Cc2cc(NC(=O)Nc3ccc4c(c3)OCO4)ccc2O[C@@H]1CN(C)C(=O)NC1CCCCC1	18
65	COc1ccc(NC(=O)N(C)C[C@H]2Oc3ccc(NS(C)(=O)=O)cc3C(=O)N([C@H](C)CO)C[C@@H]2C)cc1	12
66	C[C@@H]1CN([C@@H](C)CO)C(=O)Cc2cc(NS(=O)(=O)c3ccc(Cl)cc3)ccc2O[C@@H]1CN(C)S(=O)(=O)c1ccc(Cl)cc1	31
67	COc1cc(C(=O)Nc2ccc(S(=O)(=O)Nc3nccs3)cc2)cc(OC)c1OC	0
68	S=c1nc2c(cnn2-c2ccccc2)c(Nc2ccccc2)[nH]1	12
69	COc1ccc(CN(C)C[C@H]2Oc3ccc(NS(=O)(=O)c4ccc(C)cc4)cc3C(=O)N([C@@H](C)CO)C[C@@H]2C)cc1	14
70	Cc1ccc(S(=O)(=O)Nc2cccc3c2O[C@@H](CN(C)Cc2ccccc2)[C@H](C)CN([C@H](C)CO)C3=O)cc1	32
71	C[C@@H]1CN([C@H](C)CO)C(=O)Cc2cc(NC(=O)C3CC3)ccc2O[C@H]1CN(C)Cc1ccc2c(c1)OCO2	-1
72	O=C(COc1ccc(Cl)cc1Cl)Nc1ccccc1CO	2
73	O=C(Nc1ccc(I)cc1C(=O)NCc1cccnc1)c1ccccc1Cl	11
74	COc1ccc(NC(=O)CSc2nnc(-c3cccc(Cl)c3)n2C)cc1	-2
75	C[C@H](CO)N1C[C@H](C)[C@@H](CN(C)C(=O)Nc2cccc3ccccc23)Oc2c(NC(=O)c3cnccn3)cccc2C1=O	-12
76	Cc1ccc(-c2nn(C)c(=O)c3ccccc23)cc1S(=O)(=O)N1CCN(CCO)CC1	12
77	Cc1ccc(S(=O)(=O)Nc2cccc3c2O[C@@H](CN(C)C(=O)Nc2ccc4c(c2)OCO4)[C@H](C)CN([C@@H](C)CO)C3=O)cc1	2
78	COc1ccc(S(=O)(=O)N(C)C[C@@H]2Oc3c(NS(=O)(=O)c4cccs4)cccc3C(=O)N([C@H](C)CO)C[C@@H]2C)cc1	-12
79	C[C@@H]1CN([C@@H](C)CO)C(=O)c2cc(NC(=O)C3CC3)ccc2O[C@H]1CN(C)Cc1ccc(C(=O)Nc2ccccc2N)cc1	31
80	O=S(=O)(Cc1ccc(Cl)cc1)CC(O)COc1ccc(F)cc1 (stereo unspecified)	26
81	C=C1CC[C@@H]2C(C)(C)C[C@@H](O)C[C@@]2(C)[C@@H]1CC/C(=C/C(=O)OC)COC(C)=O	8
82	C[C@@H]1CN([C@@H](C)CO)C(=O)c2cc(NS(=O)(=O)c3cn(C)cn3)ccc2O[C@H]1CN(C)Cc1ccc(Oc2ccccc2)cc1	-14
83	C[C@@H]1CN([C@@H](C)CO)C(=O)c2cccc(NS(=O)(=O)c3ccccc3)c2O[C@@H]1CN(C)S(=O)(=O)c1ccc(F)cc1	65
84	CC(Oc1ccccc1-c1ccccc1)c1n[nH]c(=S)n1-c1ccccc1 (stereo unspecified)	11
85	C[C@@H]1CN([C@H](C)CO)C(=O)Cc2cc(NC(=O)Nc3cccc4ccccc34)ccc2O[C@H]1CN(C)C(=O)NC1CCCCC1	13
86	C[C@@H]1CN([C@H](C)CO)C(=O)Cc2cc(NS(=O)(=O)c3cn(C)cn3)ccc2O[C@H]1CN(C)Cc1ccc(Oc2ccccc2)cc1	21
87	COc1ccc(S(=O)(=O)Nc2ccc3c(c2)C(=O)N([C@H](C)CO)C[C@H](C)[C@@H](CN(C)S(=O)(=O)c2ccc(OC)cc2)OCCCC[C@@H](C)O3)cc1	1
88	C[C@@H]1CN([C@H](C)CO)C(=O)c2cc(NS(=O)(=O)c3ccc(F)cc3)ccc2O[C@H]1CN(C)Cc1ccc(C(=O)O)cc1	4
89	CC1(C)Cc2c(c(N3CCCC3)nc3sc4c(NCc5ccco5)ncnc4c23)CO1	35

# High-throughput results as filed in PubChem BioAssay.
